HCMV NEC inh – cytomegalovirus nuclear egress complex inhibition. inhibition, % (test concentration not listed). hit rate 0.15% among 190,000. AID 1918969. HTRF UL50-UL53 interaction, normalized percent inhibition;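 active = both replicates at 50% or more, plus weaker picks with an unusually low signal ratio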;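 note: stock transfer was 100 nL into about 20 µL; 0% = negative control wells and 100% = wells with untagged competitor protein; inactives centre near -12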
Sa growth inh – S. aureus growth inhibition; S. aureus RN4220 growth, OD600, 20 h, 42 °C; active compounds read low; relative growth, % (no concentration beside the values); hit rate 0.53% among 170,000;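 active = growth at 42 °C up to 50% and 20 or more points under that at 30 °C, or under 10% at both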;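 note: 300 nL library stock went into each well; scaled to the means of positive and negative controls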
GIV-Gai inh – blocks GIV peptide binding to rat Galpha-i3. P08753. Galpha-i3/FITC-GIV peptide fluorescence polarization, 90 min; active compounds read low; scaled: aluminum fluoride 0%, vehicle 100%. percent of control (FP), % (test concentration not listed). hit rate 0.42% among 210,000. AID 1224905;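 active = replicate mean at 85% of control or lower, very high polarization wells dropped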;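 note: lower values mean more displacement of the GIV peptide from Galpha-i3; wells of about 15 µL received 100 nL stock; the first replicate is given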
Target sequence (P08753 whole entry, looked up): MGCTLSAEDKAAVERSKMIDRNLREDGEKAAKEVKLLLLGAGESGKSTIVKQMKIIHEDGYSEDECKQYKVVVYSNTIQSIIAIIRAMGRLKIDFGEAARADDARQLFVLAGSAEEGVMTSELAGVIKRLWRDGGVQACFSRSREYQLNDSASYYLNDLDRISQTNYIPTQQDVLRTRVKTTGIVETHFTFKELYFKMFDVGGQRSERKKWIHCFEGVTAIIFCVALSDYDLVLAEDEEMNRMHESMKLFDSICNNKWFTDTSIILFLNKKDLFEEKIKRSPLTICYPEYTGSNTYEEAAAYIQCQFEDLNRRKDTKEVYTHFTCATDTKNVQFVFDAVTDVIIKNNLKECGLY
Sa growth inh second temp – second read-out of Sa growth inh, no call of its own (marks repeat the call); relative growth, %; measured here: growth at 30 °C;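 optical density after 20 h as mean of two plates; 100% = untreated growth and lower means inhibition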
Active calls of the source: *; . = no result given; & = joins results of further samples.

structure	HCMV NEC inh	Sa growth inh	Sa growth inh second temp	GIV-Gai inh
O=C(Nc1cc(Cl)cc(Cl)c1)c1cc(S(=O)(=O)NC2CCCC2)ccc1F	.	92	64	102
COc1ccc(CN(C)CC(=O)Nc2ccccc2C(=O)NC2CC2)cc1F	-15	85	88	.
Cn1c2ccccc2c2nn3c(=S)[nH]nc3nc21	-82	80	80	104
CC(C)c1ccc(Nc2nc3cccnc3s2)cc1	0	69	57	99
Cn1ccc2cc(S(=O)(=O)N3CCC(C(=O)N4CCN(Cc5ccccc5)CC4)CC3)ccc21	-28	.	.	105
CCC(C)NC(=O)CN1C(=O)C(C)(C)c2cc(S(=O)(=O)N3CCCCC3)ccc21 (stereo unspecified)	-6	.	.	108
CCN(CC)C(=O)Sc1nc2ccccc2c(=O)n1CC1CC1	-27	96	88	101
CCc1ccccc1NS(=O)(=O)c1ccc2[nH]cc(C(=O)NCc3cccnc3)c(=O)c2c1	3	124	70	96
Cc1nnc(NC(=O)COc2ccccc2-c2nc(C(C)C)no2)s1	6	.	.	106
CCn1c(SCc2ccc(Cl)cc2)nnc1C(C)C	-22	95	82	100
CCc1ccc(C(=O)CSc2ncn[nH]2)cc1	-8	87	74	96
COc1cccc(S(=O)(=O)N2CCOCC2)c1	11	107	98	101
Cc1ccc(C(=O)c2sc(Nc3ccc(F)cc3)nc2N)c(C)c1	.	97	90	110
Cc1ccc(NC(=O)C(C)N(C)Cc2ccccc2)cc1 (stereo unspecified)	9	90	93	.
COCC(=O)N1CCc2cc(OC)c(OC)cc2C1COc1ccc2c(C)cc(=O)oc2c1 (stereo unspecified)	-7	105	94	102
COc1ccc(CN2CCc3ccccc3C2)cc1	4	111	99	98
Cc1cc(-c2ccc(S(=O)(=O)NCc3ccccn3)s2)on1	-85	91	81	101
CCOC(=O)c1cn(CC(=O)Nc2ccc(OC)c(Cl)c2)c2nc(C)ccc2c1=O	-19	.	.	132
CCNS(=O)(=O)c1ccc(F)cc1	0	97	97	112
CN(C(=O)c1cc(-c2ccccc2)on1)C1CCCCC1	-6	110	92	103
O=S(=O)(c1cccc(S(=O)(=O)N2CCOCC2)c1)N1CCCCCC1	-12	108	88	100
COc1ccc(-n2nc(C(=O)N3CCCCC3)c3c4ccccc4n(C)c3c2=O)cc1Cl	6	95	93	103
O=C(c1ccccc1F)N1CCC(n2nc(-c3ccccc3)oc2=O)CC1	-17	100	90	106
N#CCCN(/N=C/c1ccccc1)C1=NS(=O)(=O)c2ccccc21	.	97	94	99
COc1ccc(CNC(=O)c2ccc(CSc3nc4ccncc4n3Cc3ccc(F)cc3)cc2)cc1	8	.	.	101

(more compounds)
structure	HCMV NEC inh	Sa growth inh	Sa growth inh second temp	GIV-Gai inh
CC(=O)c1cccc(NC(=O)CN2C=NS(=O)(=O)c3ccc(C)cc32)c1	.	100	88	104
O=C(NCc1ccccc1Cl)c1ccc(Cn2c(SCc3ccccc3)nc3cccnc32)cc1	.	121	102	96
CC1CN(C(=O)/C=C/c2cn(-c3ccccc3)nc2-c2ccc(Cl)cc2)CC(C)O1 (stereo unspecified)	-11	91	102	.
O=C(CCCOc1ccc(Cl)cc1Cl)Nc1ccc2c(c1)OCCO2	-6	105	108	.
CCOc1ccc2nc(N3CCCC(C(=O)NCCC(C)C)C3)sc2c1 (stereo unspecified)	4	100	93	110
COc1ccc(C(=O)Nc2c(-n3cnnc3)nn(C)c2C)cc1OC	-25	.	.	98
CCS(=O)(=O)NCCc1csc(-c2ccc(OC)c(OC)c2)n1	-39	101	86	110
Cc1nn2c(C(F)(F)F)cc(-c3ccc(Cl)cc3)nc2c1C(=O)Nc1c(C)n(C)n(-c2ccccc2)c1=O	-22	.	.	92
Cc1ccc2nc(Cl)sc2c1	-37	94	83	98
O=S1(=O)CCC(S(=O)(=O)NCc2ccccc2)C1 (stereo unspecified)	-7&-22	119	94	105&98
Oc1c(C(c2ccc(F)cc2)N2CCOCC2)sc2nc(-c3ccco3)nn12 (stereo unspecified)	.	138	89	101
O=C1c2ccccc2C(=O)C1(CCO)c1ccccc1	-9	98	89	.
O=C1COc2ccc(C(=O)Nc3nccs3)cc2N1	-6	.	.	103
COCCCNC(=O)c1ccc2nc(Cc3ccc(OC)cc3)oc2c1	.	89	87	99
CC(C)(C)N1C(=O)NC(=O)/C(=C\c2ccc(N3CCCC3)cc2)C1=O	5	102	88	312
O=C(O)C1CCCN1C(=O)Cc1ccccc1 (stereo unspecified)	3	84	99	.
CCC(C)Nc1nc(NC(C)C)nc(Oc2ccc(C(=O)OC(C)C(=O)OC)cc2)n1 (stereo unspecified)	-27	95	89	105
CCCN1CCN(S(=O)(=O)c2c(C)[nH]c(C(=O)OCC)c2C)CC1	-20	.	.	106
CCOc1ccc(-c2nonc2NC(=O)c2oc3ccc(CC)cc3c2C)cc1	14	99	100	97
Cc1nc(N=CNO)ccc1Br	-4	101	85	100
Cc1nnc2ccc(N3CCC(C(=O)N4CCCCC4)CC3)nn12	-8	.	.	101
Cn1c(=O)c2c(nc(NCCOCCO)n2Cc2ccc(Br)cc2)n(C)c1=O	-26	.	.	103
CN(C)CCP(=O)(c1ccccc1)c1ccccc1	-4	104	108	103
COc1ccc(Br)cc1CNC(=O)CCc1nc(-c2ccccc2F)no1	-1	93	68	101
O=C1NC(=S)N/C1=C/c1cccc(Oc2ccc([N+](=O)[O-])cc2[N+](=O)[O-])c1	-33	.	.	99

Further results:
structure	HCMV NEC inh	Sa growth inh	Sa growth inh second temp	GIV-Gai inh
O=C(OCC1CCNCC1)c1ccc(F)cc1	5	84	86	107
Cc1ccc(NC(=O)/C=C\C(=O)N(c2ccc(C(C)C)cc2)C(C(=O)NCc2ccco2)c2ccc(Cl)cc2)cc1 (stereo unspecified)	.	126	76	99
Cc1ccc(C(=O)N(Cc2ccco2)Cc2sccc2C)cc1	-29	113	88	103
CC(=O)N1CCCSc2ccc(S(=O)(=O)N3CCN(C)CC3)cc21	-18	.	.	100
O=C(NCc1ccccn1)C1CCN(c2nc3ccccc3n2Cc2ccccc2F)CC1	1	104	78	105
C=CCn1c(-c2ccncc2)nn(CN(C)CCc2ccc(OC)c(OC)c2)c1=S	-39	99	95	.
O=C(Cc1cccs1)NCC1(N2CCCCC2)CCCCC1	-37	98	95	.
OCC[n+]1ccc(/C=C/c2c[nH]c3ccccc23)cc1	.	94	116	-18*
CCSc1sc(CC)cc1C1C(C(=O)Nc2cccnc2)=C(C)NC2=C1C(=O)CCC2 (stereo unspecified)	.	120	87	107
COc1cccc(NC(=O)CSc2nnc3c4cc(-c5ccccc5)nn4ccn23)c1	-20	.	.	116
CC(C)(C)NS(=O)(=O)c1ccc(Cl)c(Cl)c1	-1	112	89	114
COc1ccc(NC(=O)c2ccnc(Nc3ccc(OC)c(OC)c3)c2)cc1	1	.	.	107
Cc1nn(Cc2nnc(SCc3cccc(C(F)(F)F)c3)o2)c(C)c1Br	-13	86	70	105
COCCCNC(=O)c1cc(-c2ccccc2)nc2n[nH]c(-c3ccccc3)c12	-15	.	.	101
Cc1cc(NC2CCCC2)n2nc(-c3ccccc3)c(C)c2n1	-19	.	.	101
O=C(Nc1ccc2c(c1)OCO2)C1c2ccccc2Oc2ccccc21	.	116	82	99
COc1ccccc1NC(=O)C1=C(C)NC2=C(C(=O)CC(c3ccc(OC)c(OC)c3)C2)C1c1ccc(C)o1 (stereo unspecified)	-28	103	69	97
O=C(CCc1nc2ccccc2s1)OCc1nc2ccccc2s1	2	101	100	.
COC(=O)c1sc(-c2ccc(C(C)(C)C)cc2)cc1N	3	102	94	107
O=S(c1ccc(Cl)cc1)c1ccc(-c2ccccn2)s1 (stereo unspecified)	-3	113	95	101
O=C(COn1nnc2ccc(Cl)cc21)NC1CCCc2ccccc21 (stereo unspecified)	2	135	90	.
Cc1ccc(C)c(SCC(=O)OCC(=O)N2CC(C)OC(C)C2)c1 (stereo unspecified)	-7	100	101	.
Cc1ccc(Nc2sc(C(=O)c3ccccc3)c(N)c2S(=O)(=O)c2ccccc2)cc1Cl	-14	111	93	108
Cc1ccc(NC(=O)C(=O)NCC(c2cccnc2)N2CCc3ccccc3C2)cc1 (stereo unspecified)	-24	97	99	109
COc1ccccc1OCCOc1c(Cl)cc(C=C2C(=O)NC(=O)NC2=O)cc1OC	63*	.	.	106

Copied from the listing for reference:
structure	HCMV NEC inh	Sa growth inh	Sa growth inh second temp	GIV-Gai inh
O=C(Nc1cc(Cl)cc(Cl)c1)c1cc(S(=O)(=O)NC2CCCC2)ccc1F	.	92	64	102
COc1ccc(CN(C)CC(=O)Nc2ccccc2C(=O)NC2CC2)cc1F	-15	85	88	.
Cn1c2ccccc2c2nn3c(=S)[nH]nc3nc21	-82	80	80	104

Remaining list, next part.
structure	HCMV NEC inh	Sa growth inh	Sa growth inh second temp	GIV-Gai inh
CCc1c(C)nc(SCc2nc(-c3ccccc3)no2)[nH]c1=O	.	98	103	108
COc1ccc(C(=O)N2CCCC(C(=O)N3CCCCCC3)C2)cc1 (stereo unspecified)	.	108	87	104
CN(C)C(=O)COc1ccc(Oc2ccccc2)cc1	-21	100	80	.
N#C/C(=C\c1ccc(-c2ccc(F)cc2)o1)C(=O)NCCc1ccccc1	-10	69	81	.
Cc1ccc(NC(=O)CSc2nnc(NC(=O)NC3CCCCC3)s2)cc1	.	115	94	91&100
COc1ccc(-c2n[nH]c(=S)o2)cc1OC	.	93	94	105
Cc1ccc(C2Nn3c(nnc3-c3ccccc3)SC2C(=O)NCC2CCCO2)cc1 (stereo unspecified)	.	108	87	103
O=C(N/N=C1/C(=O)c2cccc3cccc1c23)c1ccc(O)cc1	-16	92	90	.
O=C(Nc1ccccc1Br)c1ccc2c(c1)N(Cc1ccc(F)cc1)C(=O)CS2=O (stereo unspecified)	.	110	91	98
O=C(/C=C/c1ccccc1)NC(=S)Nc1ccc(C(F)(F)F)cc1	-22	99	90	103
CCOC(=O)c1cc2c(Cl)ccc3c2n1CC(CC)O3 (stereo unspecified)	-26	.	.	103
Cc1coc2cc3oc(=O)c(CC(=O)O)c(C)c3cc12	11	94	91	100
CN1C(=O)C(=Cc2ccc(N3CCc4ccccc4C3)c([N+](=O)[O-])c2)C(=O)N(C)C1=O	-3	.	.	104
CC(C)Nc1nc2c(S(=O)(=O)c3ccccc3)nnn2c2ccsc12	37*	83	84	101
CCc1cccc(NC(=O)CCn2c(=O)c3cccn3c3cccnc32)c1	.	93	88	102
Cc1ccc(C(=O)Nc2ncc(Cl)cn2)cc1	9	.	.	106
O=C(CSc1nc2ncccc2[nH]1)Nc1cc(F)ccc1F	-24	110	95	94
CSc1ccc(C(=O)c2[nH]c(=O)[nH]c2C)cc1	-70	.	.	106
CCC(c1ccccc1)c1nn2c(-c3ccccn3)nnc2s1 (stereo unspecified)	-6	.	.	120
CC(C(=O)Nc1ccccc1C(=O)NC1CC1)N1C(=O)C2CC=CCC2C1=O (stereo unspecified)	-38	100	85	.
O=C(Nc1ccc(F)cc1)C(F)(F)Sc1ccccc1	-7	100	77	99
Cc1ccc(C2C=C(c3ccccc3)Nc3nc(NS(C)(=O)=O)nn32)cc1 (stereo unspecified)	-66	118	90	92
Nc1nc(N)n(-c2ccccc2)c(=Nc2ccccc2)n1	-42	91	89	100
COCCNC(=O)c1cc(-c2ccccc2)on1	14	113	100	104
CC1CCCC(C)N1C(=O)C1CC(c2ccccc2F)=NO1 (stereo unspecified)	-16	110	86	100

Reprinted at random: five entries already listed.
structure	HCMV NEC inh	Sa growth inh	Sa growth inh second temp	GIV-Gai inh
CN1C(=O)C(=Cc2ccc(N3CCc4ccccc4C3)c([N+](=O)[O-])c2)C(=O)N(C)C1=O	-3	.	.	104
Cc1ccc(C2C=C(c3ccccc3)Nc3nc(NS(C)(=O)=O)nn32)cc1 (stereo unspecified)	-66	118	90	92
O=C(CSc1nc2ncccc2[nH]1)Nc1cc(F)ccc1F	-24	110	95	94
Cc1ccc(C2Nn3c(nnc3-c3ccccc3)SC2C(=O)NCC2CCCO2)cc1 (stereo unspecified)	.	108	87	103
CC(C(=O)Nc1ccccc1C(=O)NC1CC1)N1C(=O)C2CC=CCC2C1=O (stereo unspecified)	-38	100	85	.

Next part:
structure	HCMV NEC inh	Sa growth inh	Sa growth inh second temp	GIV-Gai inh
Cc1ccc(NC(=O)c2cc(S(=O)(=O)N3CCCCC3)c[nH]2)cc1N(C)C	.	142	96	111
C=C(C)CSc1n[nH]c2nc3c(c(=O)n12)C(C)(CC)Cc1ccccc1-3 (stereo unspecified)	-17	124	91	103
Cc1ccc(NC(=O)Cc2csc(COc3ccc(Cl)c(C)c3)n2)c(C)c1	-26	.	.	108
CCOc1ccc(Cn2nnc(C(=O)Nc3ccc(Cl)cc3)c2N)cc1	1	117	93	104
COc1ccc(NC(=O)C2Nc3ccc(Cl)cc3S(=O)(=O)N2)c(OC)c1 (stereo unspecified)	8	.	.	107
COC(=O)C(CC(C)C)NC(=O)C1c2ccccc2Oc2ccccc21 (stereo unspecified)	2	90	92	95
Nc1nc(-c2ccc3c(c2)NC(=O)CO3)cs1	-15	95	92	.
COc1cc(OC)cc(C(=O)Nc2ccc(-c3nc4ccccc4s3)c(C)c2)c1	.	119	99	102
COc1ccccc1NC(=O)CSc1nnc(-c2ccccc2C)o1	-20	104	84	98
